Compound activity deposited in PubChem BioAssay by National Center for Advancing Translational Sciences (NCATS).
gsp agonist: activates gsp, the McCune-Albright syndrome mutation; Potency, µM (top dose mostly 76.9 µM), without a hit: at the highest dose activation (cAMP increase), usual class: activators; gsp mutant cells, cAMP HTRF, 30 min; control for the full effect not named in the record; actives 0.13% (n = 340,000); active = well fitted activation curve with a large enough effect; inconclusive = small, poorly fitted or top-dose-only effect, or another doubt; inactive = no such curve, though single readings can be large or run the other way; cell line not stated here;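 further: phosphodiesterase inhibitor Ro 20-1724 added with compounds to block cAMP breakdown; potency means the concentration at half of the fitted maximal effect; nearly all actives have a fitted effect of over 60% in size; about a fifth of the inactives were tested at one dose only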
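Cells stably selected in G418 were plated at 2000/well, grown 16-24 hr, then given compounds in DMSO with the PDE inhibitor […] (300 uM solution added) for 30 min at 37C; cAMP was read by HTRF.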
TRPML1 blocker: blocks the human TRPML1 channel | activity change, negative = inhibition, % (no concentration beside the values) | Q9GZU1 | TRPML1-inducible cells, Ca2+ dye fluorescence, FDSS; stronger effect = lower value; inhibition of EC80 agonist-evoked calcium signal | AID 624415 | actives 0.02% (n = 390,000); in the data active means activity change below about -50%; inconclusive means about -30% to -50%; inactive means above about -30%;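 further: stimulus is agonist 54-4 at its EC80 concentration; on the % scale 0 is the no-effect control and ±100 the full control effect; compound concentration not given in the record; the text of the record puts the active cut at -80%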
Target sequence (Q9GZU1 whole entry, looked up): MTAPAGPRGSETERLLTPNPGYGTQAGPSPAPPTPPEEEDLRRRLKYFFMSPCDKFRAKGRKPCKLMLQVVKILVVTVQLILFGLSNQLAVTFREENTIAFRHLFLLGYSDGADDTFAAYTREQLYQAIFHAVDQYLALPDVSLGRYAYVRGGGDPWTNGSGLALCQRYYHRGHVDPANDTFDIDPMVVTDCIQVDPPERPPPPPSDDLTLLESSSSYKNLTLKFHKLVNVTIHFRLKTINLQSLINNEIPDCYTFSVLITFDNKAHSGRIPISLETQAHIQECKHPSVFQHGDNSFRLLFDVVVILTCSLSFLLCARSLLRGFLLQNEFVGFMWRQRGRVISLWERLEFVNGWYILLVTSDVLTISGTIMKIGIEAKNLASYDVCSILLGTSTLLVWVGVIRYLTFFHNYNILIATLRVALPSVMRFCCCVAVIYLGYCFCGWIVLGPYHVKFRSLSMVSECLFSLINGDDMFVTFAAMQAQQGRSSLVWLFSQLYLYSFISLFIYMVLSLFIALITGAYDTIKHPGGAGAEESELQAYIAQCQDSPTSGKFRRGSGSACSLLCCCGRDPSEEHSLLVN
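Calcium fluorescence in TRPML1-DL cells induced overnight with Tet: a 110 s read after compound pin addition, then a 110 s antagonist read after challenge with 54-4 at 4 uM final (EC80).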
TRPML1 agonist: human mucolipin-1 channel agonism | actives 0.12% (n = 410,000) | AID 624414 | activation, % (test concentration not listed) | TRPML1-expressing cells, Ca2+ dye fluorescence, FDSS; host cell line not named in the record; reference of the full effect not given here | Q9GZU1; in the data active = activation above about 50%; inconclusive = about 30% to 50%; inactive = below about 30%; further: 0% is about no effect; the text of the record puts the active cut at 80%
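In this qHTS format, compounds were pin-transferred onto Ca8-dye-loaded TRPML1-DL cells induced with Tet overnight, and intracellular Ca2+ fluorescence was recorded kinetically for 110 s after a 10 s baseline. A subsequent 4uM final 54-4 (EC80) addition followed by a second 110 s read served as the antagonist phase.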
gsp antagonist: antagonists of gsp mutant (McCune-Albright syndrome). Potency, µM (doses to about 76.9 µM), inactives show at the top dose activity change, negative = inhibition, actives largely listed as inhibitors. actives 0.4% (n = 340,000). gsp-mutant cells, cAMP HTRF, 30 min; control for the full effect not named in the record. AID 624288; active = falling curve of any shape with a large fitted effect; inconclusive = falling curve, mostly with a smaller effect; inactive = flat or rising curve; cell line not stated here;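 further: intracellular cAMP measured with PDE inhibitor Ro 20-1724 present during compound exposure; potency means the concentration at half of the fitted maximal effect; on the % scale 0 is the no-effect control and ±100 the full control effect; nearly all actives have a fitted effect of over 65% in size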
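Measurement of cellular cAMP by homogeneous time-resolved fluorescence following a 30 min compound exposure at 37C. The PDE inhibitor […] was present throughout; the assay buffer was DPBS with 0.05% BSA and 0.005% Tween 20.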
ClpP mod: qHTS Assay for Activators of ClpP; Potency, µM (highest dose often 57.5 µM), for inactives: top-dose activity change, negative = active; AID 651965, 2013; purified B. subtilis ClpP, FRET peptide cleavage, 20 min; actives 1.9% (n = 340,000); ATP-dependent Clp protease proteolytic subunit (Bacillus subtilis (strain 168)), P80244; active = well fitted falling curve with a large enough effect; inconclusive = small, poorly fitted or top-dose-only effect; inactive = no such curve, though single readings can be large or run the other way; further: potency means the concentration at half of the fitted maximal effect; the source files actives as falling curves though it sought activators and does not explain the sign; nearly all actives have a fitted effect of over 65% in size; many hits overshoot -100%
Target sequence (P80244 whole entry, looked up): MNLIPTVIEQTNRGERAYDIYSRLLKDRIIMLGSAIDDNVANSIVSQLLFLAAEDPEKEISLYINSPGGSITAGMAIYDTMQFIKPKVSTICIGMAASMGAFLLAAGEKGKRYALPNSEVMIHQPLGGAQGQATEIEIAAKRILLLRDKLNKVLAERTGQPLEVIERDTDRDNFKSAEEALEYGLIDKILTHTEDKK
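ClpP 10 microg/mL final, pH 8 Tris/KCl buffer with BSA, glycerol, Tween-20; compound pinned in; FRET-FV substrate; RT 20 min; Ex320/Em430; ΔFRET vs ADEP 5.8 microM, DMSO, no enzyme.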
Menin-MLL FL inh: displaces fluorescein MLL peptide from human menin. FP activity change, % at 61.4 µM. AID 1766. 290,000 tested, under 10 active. Fluorescence polarization, fluorescein-MLL peptide displacement from menin; inconclusive = falling polarisation curve, or a change in total fluorescence; inactive = total fluorescence flat and polarisation flat or rising; no compound was filed as active; the % refers to the polarisation; negative = inhibition;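 further: % of control where 0% means no effect; inhibitors lower the polarisation; unlabelled MLL peptide was the positive control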
Starred values were filed as active, the others as inactive; ? = inconclusive; . = no result given; & = joins results of further samples; [ ] = remark or other dose.

mol	gsp agonist	TRPML1 blocker	TRPML1 agonist	gsp antagonist	ClpP mod	Menin-MLL FL inh
COC(=O)C1=C(C)NC(C)=C(C(=O)OC)C1c1cc2cc(C)ccc2[nH]c1=O	-28%	-5	-0.4	4%	?	1.0
Cc1ccn2c(NC(=O)c3ccccc3)c(-c3ccccc3)nc2c1	-19%[15.4 µM]	3	-0.2	-1%	0.5%	-1.1
Cc1cccc(NC(=O)c2oc3c(c2C)C(=O)CC(C)(C)C3)n1	-4%	?	1.7	-9%	0.9%	1.1
Cc1cc(C)cc(NC(=O)c2sc3nc(-c4cc5ccccc5oc4=O)[nH]c(=O)c3c2C)c1	.	-50*	0.4	.	1.5%	.
O=C(Nc1cccnc1)c1cccc(F)c1	-1%[15.4 µM]	6	0.2	-1%	-2.8%	0.6
Cn1cnnc1SCC(=O)c1ccc2c(c1)OCO2	12%	-3	0.0	-15%	-2.2%	0.6
CCCCc1nn2c(N)c(/C=C3\C=Nc4ccccc43)c(=O)nc2s1	?	-2	1.4	-7%	2.2%	9.8
Cc1ccc(S(=O)(=O)Nc2ccccc2C(=O)N2CCCCCC2)cc1	-1%[15.4 µM]	-3	-1.6	12%	0.4%	1.1
Cc1ccc(NC(=O)CSCC(=O)Nc2sccc2C#N)cc1	0%	-12	1.6	-2%	-0.7%	.
CC(Nc1ccc(F)cc1)=[N+](C)CCNS(=O)(=O)c1ccc(Cl)cc1	17%	2	0.5	6%	-0.5%	.
COCCNc1ccc(S(=O)(=O)N2CCCC2)cn1	-10%[15.4 µM]	15	1.4	13%	.	-2.1
CCc1nc(SCC(=O)N2c3ccccc3CC2C)c2c(C)c(C)sc2n1 (stereo not drawn)	-19%	11	1.6	-21%	-2.5%	2.8
COc1cc2c(cc1NC(=O)c1ccc(C)c([N+](=O)[O-])c1)oc1ccccc12	-60%[inhibitor]	14	1.0	7%	-6.2%	3.9
Cc1ccccc1N=Nc1c(N)n[nH]c1N	-66%[inhibitor]	-13	-0.4	6%	-0.2%	1.4
O=C(NCCC1=CCCCC1)C1CCCN(S(=O)(=O)c2ccc(F)cc2)C1 (stereo not drawn)	-17%	-6	-0.5	1%	-0.8%	4.4
CN(CC(=O)N1CCN(c2ccccn2)CC1)S(=O)(=O)c1ccc2ccccc2c1	3%	63	-0.8	-16%	-15%	1.2
CC1CCCC(C)N1C(=O)COC(=O)Cc1ccc(Cl)cc1 (stereo not drawn)	-22%	.	.	6%	-0.3%	1.1
Nn1c(N2CCCCC2)nc2ccccc21	-40%[inhibitor]	-7	0.1	6%	-2.1%	4.4
COc1ccc(S(=O)(=O)N2CCC(C(=O)NCCN3CCOCC3)CC2)cc1C	-3%[15.4 µM]	14	-0.7	5%	-0.4%	-3.2
COc1cc2[nH]c(=O)n(CCC(=O)N3CCN(c4cc(Cl)ccc4C)CC3)c(=O)c2cc1OC	?	6	0.3	-15%	?	-0.5
CCOC(=O)c1ccccc1NC(=O)N1CCOc2ccc(Cl)cc21	.	9	4.1	.	?	.
CCOC(=O)C1(Cc2cccc(OC)c2)CCN(CC2CC=CCC2)CC1 (stereo not drawn)	4%[15.4 µM]	-3	-0.2	.	.	-3.0
S=c1nc2ccccc2c2nc(-c3ccccc3Br)[nH]n12	-32%[inhibitor]	22	0.3	-1%	.	-8.1
CC(C)c1ccc(NC(=O)C2CCN(S(C)(=O)=O)CC2)cc1	-32%[inhibitor]	12	-0.7	-1%	-2.5%	-3.8

Continued (3 carried over from the part before).
mol	gsp agonist	TRPML1 blocker	TRPML1 agonist	gsp antagonist	ClpP mod	Menin-MLL FL inh
CCOC(=O)C1(Cc2cccc(OC)c2)CCN(CC2CC=CCC2)CC1 (stereo not drawn)	4%[15.4 µM]	-3	-0.2	.	.	-3.0
S=c1nc2ccccc2c2nc(-c3ccccc3Br)[nH]n12	-32%[inhibitor]	22	0.3	-1%	.	-8.1
CC(C)c1ccc(NC(=O)C2CCN(S(C)(=O)=O)CC2)cc1	-32%[inhibitor]	12	-0.7	-1%	-2.5%	-3.8
Cc1ccc(/C=N\NC(=O)Cn2c(C)nc3ccccc32)o1	?	-23	1.0	-8%	-0.6%	-0.3
Cc1c(C)n2c(SCC(=O)Nc3cccc4ccccc34)nnc2[nH]c1=O	-1%[15.4 µM]	38	2.2	-9%	.	.
CCOC(=O)/C=C1\NC(=O)CS1	-32%	4	0.1	2%	0.3%	0.1
CCOC(=O)N1CCN(C(=O)C(C)n2nc(C)n3c(cc4sccc43)c2=O)CC1 (stereo not drawn)	?	-6	0.0	1%	-26%	-0.3
CCCC[C@@H]1CCCO[C@@](C(=O)NCc2ccc(S(C)(=O)=O)cc2)(C(F)(F)F)C1	.	-11	1.3	.	.	7.2
O=C(Nc1nc(-c2ccccc2)cs1)c1cccs1	3%	9	-1.1	?	-1.7%	0.6
CC(C)c1cc(N2CCOCC2)n2ncc(-c3ccccc3)c2n1	5%[15.4 µM]	12	-0.2	-36%	-3.0%	-0.7
COc1ccc(-c2ccc(=O)n(Cc3cccc(Cl)c3)n2)cc1	-29%	.	.	-22%	4.0%	-1.1
O=S(=O)(Cc1ccc(Cl)cc1)C1CCCCC1O (stereo not drawn)	-25%[15.4 µM]	-10	0.2	6%	.	5.8
O=C(Oc1ccc(C(=S)N2CCOCC2)cc1Br)c1ccccc1F	-73%[inhibitor]	13	0.1	-16%	-12%	0.8
CC(C)(Oc1ccc(Cl)cc1)C(=O)Nc1ccncc1	-43%[inhibitor]	11	0.2	0%	-0.2%	0.2
CCCOC(=O)c1c(-c2ccc(C)cc2C)csc1NC(=O)C1C2CCC(O2)C1C(=O)O (stereo not drawn)	8%	-12	-0.5	-19%	-11%	-3.8
NC(=S)N1OC[C@@H]2COc3ccc4ccccc4c3[C@@H]21	13%[15.4 µM]	10	2.3	3%	.	-2.9
CCN1CCN(c2ncnc3c2sc2nc(N4CCOCC4)c4c(c23)CCC4)CC1	6%	13	-0.1	11%	-2.6%	6.4
O=C(Cn1c(=O)n(Cc2ccco2)c(=O)c2ccccc21)Nc1cccc(F)c1	.	7	1.3	.	18%	.
CCc1cc(-c2[nH]ncc2-c2nc3ccccc3n2C)c(O)cc1O	0%	8	0.2	2%	-30%	11
Cc1ccc(NC(=O)CCn2nc(C)cc2C)cc1	-1%	-13	-0.7	9%	-6.3%	-4.0
CCOc1ccc(C(=O)Nc2cccc(-c3ccc4nncn4n3)c2)cc1	27%	.	.	-7%	-30%	-0.3
C/C(=N\Nc1nncc2ccccc12)c1cccc(OC(F)F)c1	6%[15.4 µM]	4	2.6	6%	.	-4.0
Cc1ccc2nc(N3CCN(C(=O)CCCC(=O)O)CC3)nc(-c3ccccc3)c2c1	?	-6	-0.2	-21%	?	-8.1
O=C(CNC(=S)N(Cc1ccccc1F)C1CCCCC1)NCC1CCCO1 (stereo not drawn)	-8%[15.4 µM]	-2	-0.3	-1%	.	-4.7
N#CCCN(C(=O)c1cc2c(s1)-c1ccccc1S(=O)(=O)C2)c1ccccc1	1%	?	-0.1	-15%	-1.7%	.
O=[N+]([O-])c1ccccc1S(=O)(=O)Nc1cccc(S(=O)(=O)N2CCCC2)c1	29%	5	-0.7	0%	1.1%	.
CC(C)OCCCNC(=O)Cn1ccc2cc(S(=O)(=O)N3CCCCCC3)ccc21	-3%	33&1	0.5&-0.4	-4%	0.3%&-14%	-3.0
O=C(O)c1nn(CCSc2ccccc2F)c(=O)c2ccccc12	?	.	.	9%	0.1%	5.5
CCOC(=O)COc1ccc(C2C(C(=O)OC)=C(C)NC3=C2C(=O)c2ccccc23)cc1Cl (stereo not drawn)	.	-14	-0.4	.	2.6%	.
CCc1cccc2c(C(=O)COC(=O)c3cccc(S(=O)(=O)N(C)C4CCCCC4)c3)c[nH]c12	-38%[inhibitor]	25	2.4	3%	-1.5%	4.7
O=C(c1cc(C(=O)N2CCCC2)cc([N+](=O)[O-])c1)N1CCCC1	17%	23	1.7	-4%	-2.1%	-2.6
CC1=C(C(=O)Nc2ccc(C)cc2Cl)C2(CCCCCC2)OC1=O	.	4	2.4	.	1.7%	.
Nn1c(Cc2cccc3ccccc23)nnc1SCc1ccc(Cl)c(Cl)c1	9%	-13	0.5	?	-0.7%	-9.9
Cc1cccc(CCNC(=O)CCc2c(C)nc3ncnn3c2C)c1	13%	-5&16	-0.7&-0.3	14%	-3.1%&-0.8%	3.4
CC(C)CC(=O)NCCCCc1ccccc1	6%	12	0.6	8%	-2.8%	-0.2
CC1=C(c2ccc(C(C)C)cc2)S(=O)(=O)N=C1N1CCN(c2ccccc2F)CC1	.	3	0.7	.	1.1%	.
Cc1ccc(Cl)cc1N(CC(=O)Nc1cccc(N(C)S(C)(=O)=O)c1)S(C)(=O)=O	-5%[15.4 µM]	3	-0.9	-15%	-1.1%	-10
Cc1cc(NC(=O)c2ccc3c(c2)OCCO3)ccc1NC(=O)c1cc2ccccc2o1	1%	-7	1.1	-14%	?	-7.3
O=C(CN1C(=O)NC2(CCCc3ccccc32)C1=O)N1CCN(c2cccc(C(F)(F)F)c2)CC1 (stereo not drawn)	?	-2	-0.6	-21%	4.0%	.
Cc1ccc(C)c(CS(=O)(=O)c2cn(CC(=O)N3CCC(C)CC3)c3ccccc23)c1	-23%	2	0.7	?	-3.0%	-1.4
O=C(CS(=O)(=O)c1ccccc1)Nc1ccccc1Br	-18%	7	1.4	1%	-0.6%	.
CCN(C(=O)C1CCCN(c2ncnc3onc(-c4ccc(F)cc4)c23)C1)c1ccccc1 (stereo not drawn)	.	-10	1.8	.	-1.3%	.
COc1ccc(S(=O)(=O)N2CCCC(C(=O)NCCC(C)C)C2)cc1 (stereo not drawn)	-3%[15.4 µM]	21	-0.5	8%	.	-1.1
COC(=O)CSCC(=O)Nc1nnc(-c2ccccc2C)s1	?	5	1.0	-16%	-3.6%	0.1
CC(=O)Nc1nonc1C(=O)N1CCC(C)CC1	1%	-6	0.5	5%	-0.3%	-1.0
O=C(Nc1ccc2c(c1)OCO2)c1ccccc1	-21%	-5	1.1	-7%	.	.
COc1ccc(Nc2ncc(C(=O)N3CCN(c4ccc(OC)cc4)CC3)c3ccccc23)cc1	.	-11	-0.1	.	-13%	.
